# Compound activity (PubChem)
# NPYLR7 agonist: mosquito NPYLR7 agonism; HEK293T NPYLR7/Galpha15, GCaMP6s calcium fluorescence; activation, % at 10 µM; 270,000 compounds, 0.15% hits; AID 1259423; in the data active means activation above about 40%;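 further: 0% = vehicle and 100% = reference agonist at the receptor; some compounds past the cut are filed as inactive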
# NPYLR7 agonist max-min: also measured in NPYLR7 agonist; calls as there; activation, %; measured here: Max-Min RFU normalised activation; some inactives read as strong as hits;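 span of the calcium signal over five minutes; 0% = vehicle and 100% = native peptide agonist; compound fluorescence can raise it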
# Starred values were filed as active, the others as inactive; & = joins results of further samples. The list is partial; count on the stated rates, not on these rows.
molecule | NPYLR7 agonist | NPYLR7 agonist max-min
COc1ccc(C(=O)N(Cc2cc(NC(=O)C3CC3)ccc2N(C)C)CC2CC2)cc1 | 5 | 12
CC1Cc2cc(-c3cc(COC(=O)c4cc5ccccc5oc4=O)no3)ccc2O1 (stereo unspecified) | 0 | -3
Cc1nn(Cc2ccc(C(F)(F)F)cc2)c(=O)c2c1cnn2-c1ccccc1 | 4 | 3
FC(F)(F)c1cnc(Sc2n[nH]c(-c3ccccc3)n2)c(Cl)c1 | 4 | 0
CN(Cc1nc(Cc2ccccc2Cl)no1)CC1CCOCC1 | 4 | 0
Cc1cc(C)n2nc(SCC(=O)NCCc3ccccc3C)nc2n1 | 9 | 3
Cc1ccc(CN(CCc2c[nH]c3ccccc23)C(=O)CN(C(=O)NC23CC4CC(CC(C4)C2)C3)C(C)C)cc1 | 22 | 25
Cc1cc(C)cc(COc2coc(CN3CCN(C(=O)c4ccc(F)c(C(F)(F)F)c4)CC3)cc2=O)c1 | 20 | 7
CN1CCN(S(=O)(=O)c2ccc3c(c2)OCCO3)CC1 | 2 | -2
CC(c1cc(F)ccc1F)N(C)C(=O)NCC(=O)N(C)C (stereo unspecified) | 14&1 | 16&-1
NC(=O)c1cccc(CC2CCN(C(=O)c3ncccc3O)C2)c1 (stereo unspecified) | 2 | 4
CCOC(=O)c1cn[nH]c1S(=O)(=O)N1CCC2(CC1)OCCO2 | -2 | -4
O=C(Nc1nccs1)C1CCCCN1C(=O)c1cccs1 (stereo unspecified) | 9 | 6
Cc1cc(NC(=O)CC2CSc3nc4c(cnn4-c4ccccc4)c(=O)n32)no1 (stereo unspecified) | 1 | 1
O=S1(=O)CCC(S(=O)(=O)NC2CCCCC2C(F)(F)F)CC1 (stereo unspecified) | 9 | 4
CN(C)CCn1ccnc1-c1ccc(C#CC(C)(C)O)cc1 | 3 | 0
CCOC(=O)c1ccc2c(c1)nc(SCc1nc(-c3cccc(F)c3)oc1C)n2CCOC | 14 | 27
CCNC(=O)c1ccc(NC(=O)NCc2cccc(OC)c2)c(C)c1 | 10 | 6
CC1CCc2c(sc3nc(CN(C)C4CCCCC4)[nH]c(=O)c23)C1 (stereo unspecified) | -4 | -6
CN(C)CCOC(=O)c1cccc2c1-c1ccccc1C2=O | 2 | 7
C=CCN(C(=O)Cc1csc(C)n1)C1(C)CCS(=O)(=O)C1 (stereo unspecified) | 0 | 1
Cc1cnc(NC(=O)c2ccc(CN(C)Cc3cnc(N)nc3)cc2)s1 | 6 | 3
COCCN(CC(=O)N1CCc2sccc2C1c1ccccc1C)C(=O)c1ccc([N+](=O)[O-])cc1 (stereo unspecified) | -17 | -13
COc1cccc(-c2cc(-c3ccc(C(=O)NCc4ccc5c(c4)OCO5)cc3)[nH]n2)c1 | 2 | 13
Cc1cccc(-c2cccc(NC(=O)C3CCCN(C(=O)c4ccnc(N)c4)C3)c2)c1 (stereo unspecified) | 2 | -1
CC(=O)c1ccc(S(=O)(=O)Nc2ccc(Cl)c(S(=O)(=O)N(C)C)c2)cc1 | 0 | -2
COc1ccc(C(=O)C[n+]2ccc3c(c2)nnn3C)cc1 | 0 | -5
CCCCCn1c(=O)c2c(nc3n(CCOC)c(C)c(C)n23)n(C)c1=O | -1 | 22
CCc1nc2ccc(C(=O)NCCN3CCOCC3)cn2c1N(C)Cc1cccs1 | 6 | -6
CCCC(C)NC(=O)c1cc([N+](=O)[O-])ccc1Cl (stereo unspecified) | 0 | -2
Cc1ccc2[nH]c3nc(N/N=C\c4ccc(-c5cccc([N+](=O)[O-])c5)o4)nnc3c2c1 | -14 | -14
Cn1ccnc1CN(C(=O)c1c(O)cccc1O)C1CC1 | -1 | -5
CC1=NN(c2ccc(C(=O)NC3CC4CC3C3CCCC43)cc2)CC1 (stereo unspecified) | 4&-3 | 3&-4
Cn1c(=O)[nH]c(=O)c2c1nc(N1CCCCCC1)n2Cc1ccccc1Cl | 2 | -3
CN(Cc1n[nH]c2c1CCCC2)C(=O)c1cn(CC2COc3ccccc3O2)nn1 (stereo unspecified) | 2 | -2
Fc1ccc(N2CCN(C3CCCN(Cc4cccn4-c4ccccn4)C3)CC2)cc1 (stereo unspecified) | 26 | 8
CN(Cc1cccc2cnccc12)c1ncnc2[nH]ccc12 | 18 | 7
O=C(c1c[nH]c(=S)n1-c1ccc(F)cc1)N1CCN(S(=O)(=O)c2ccccc2F)CC1 | 5 | 3
COc1ccc(NC(=O)N2CCC3(CC2)SCCN3C(=O)c2ccc(Cl)cc2Cl)c(OC)c1 | 7 | 5
COc1ccc(C(=O)N2CCC(n3c(=O)[nH]c4ccccc43)CC2)cc1Oc1nc(Cc2ccccc2)ns1 | 9 | 2
COc1cc2c(cc1OC)C1CN(C(=O)c3cc4ccccc4s3)CC(=O)N1CC2 (stereo unspecified) | 1 | 12
CCN(CC1CCN(Cc2ccccc2)C1)C(=O)Nc1cc(C)no1 (stereo unspecified) | -6 | -7
CCn1ncc(C(=O)N(CC#Cc2ccccc2)C2CC2)c1C | 4 | 1
Cc1nc(-c2ccccc2)nc(N2CCN(S(C)(=O)=O)CC2)c1Cc1ccccc1F | -2 | 8
COc1cc2nc(/C=C/c3ccco3)oc(=O)c2cc1OC | 17 | 7
OCC#CCSc1nnc(-c2ccccc2Br)o1 | 6 | 6
OC1(c2ccc3c(c2)OCCO3)CN(c2ccccc2)C2=[N+]1CCCS2 (stereo unspecified) | 8 | 8
C=CCNC(=O)Cn1c(-n2nc(C)cc2C)nc(C)c(C)c1=O | 1 | 6
CN(C)c1nc(N(C)C)nc(N2CC(=O)N(c3ccccc3)C2=N)n1 | -3 | -3
CCNC(=O)CC1Nc2cc(C)c(C)cc2NC1=O (stereo unspecified) | 2 | 8
CCOc1ccc(-c2nc(NN=Cc3ccc(OC)c(OC)c3)sc2C)cc1 | 18 | 34
CCCCc1ccc(-c2nc(C=Nc3ccccc3I)c(O)o2)cc1 | -1 | -9
CC1C(=O)N(c2ccccc2-c2ccccc2)CCN1C(=O)Cc1ccccc1 (stereo unspecified) | -4 | -3
CN(C)S(=O)(=O)c1ccccc1CNc1cccc(F)n1 | 1 | 3
C=CCCC(O)(CCC=C)c1ccc(CN(CCN2CCOCC2)Cc2ccc(C)s2)o1 | -8 | -1
CCCCOc1ccc(C(=O)N(CCCC)CC(=O)N2CCc3sccc3C2c2ccccc2C)cc1 (stereo unspecified) | 0 | 3
O=C(O)CCCn1cccc1 | 17 | 10
Cc1ccccc1CCC1CCCN(CC(=O)Nc2cnn(C)c2)C1 (stereo unspecified) | -2 | -9
Nc1cc(-c2cccc(C(F)(F)F)c2)nn1-c1ccc(C(=O)NCC(c2ccccc2)c2ccccc2)cc1 | -17 | -20
CCOc1ccccc1-n1c(CCN)n[nH]c1=O | -2 | -2

# Other entries follow.
molecule | NPYLR7 agonist | NPYLR7 agonist max-min
Cc1csc(C(C#N)C(=O)COC(=O)c2c(F)cccc2Cl)n1 (stereo unspecified) | 5 | 3
Cc1cc(C(=O)Nc2cc(C)nn2-c2nc3ccc(F)cc3s2)n(C)n1 | -11 | -14
Cc1ccsc1-c1nccn1CCc1ccccn1 | -6 | -11
COn1c(=O)c(-c2ccc(I)cc2)[n+]([O-])c2ccccc21 | 1 | 0
COc1ccc(OC(F)(F)F)cc1CC1(C)C(=O)Nc2ccc(F)cc21 (stereo unspecified) | 2 | 6
CC1(C(=O)NS(=O)(=O)c2ccc(F)cc2F)CCN1C(=O)C1(c2ccc(Cl)cc2)CC1 (stereo unspecified) | 3 | 3
Cc1cc2ncc(C(=O)NC3CCOc4ccccc43)c(C)n2n1 (stereo unspecified) | -1 | -2
Cc1ccc(N2CN(CC(=O)NC3CCc4ccccc43)S(=O)(=O)c3cccnc32)cc1 (stereo unspecified) | -1 | -4
CC(C)(C)c1cc2nc(-c3ccccc3F)cc(C(=O)N3CCN(c4cccc(Cl)c4)CC3)n2n1 | -10 | -2
COc1cc(F)ccc1NC(=O)NCc1cn2c(n1)CCCC2 | -11 | -11
COc1ccc(CC(=O)Nc2cc(C(N)=O)cc(F)c2C)c(OC)c1 | 5 | 6
CC1CCc2sc(C(=O)NN3C(=O)NC4(CCCCC4)C3=O)cc2C1 (stereo unspecified) | 21 | 27
CCn1ncnc1CN1CC[C@@H](c2ccc3c(c2)OCO3)[C@H](O)C1 | 12 | 9
COc1ccccc1-c1nnc(SCc2ccccc2C(F)(F)F)n1-c1ccccc1 | 1 | 6
CCOc1ccccc1C(=O)NNc1cc(=O)n(C)c(=O)n1C | 3 | 3
COC(=O)c1ccc(Cn2c(-c3nnc(C(C)C)o3)cc3ccccc32)cc1 | -1 | -1
Cc1ccsc1C(=O)Nc1ccccc1NS(=O)(=O)c1cccs1 | 7 | 4
Cc1cc(C)c(-c2csc(NC(=O)CCCCl)n2)c(C)c1 | 3 | 0
O=C(N1CCC(Cc2ccc(-n3cccc3)cc2)CC1)C(Cl)(Cl)Cl | 4 | 2
CN(CC(O)COc1ccccc1CN1CCC(c2ccncc2)CC1)C1CCCCC1 (stereo unspecified) | 6 | 7
Cc1ccc(CN(C)C(=O)C2CCC(=O)N(C3CCCCCC3)C2)cc1 (stereo unspecified) | 4 | 3
CN(CCOc1cccc(C#N)c1)C1CCCCC1S(C)(=O)=O (stereo unspecified) | 5 | 2
O=C(Nc1ccccc1C(F)(F)F)N(CC(=O)N1c2ccccc2-n2cccc2C1c1ccc(F)cc1)C1CC1 (stereo unspecified) | 27 | 29
CC(Oc1ccccc1)C(=O)N1CCN(C2c3ccccc3CCc3ccccc32)CC1 (stereo unspecified) | 18 | 7
Cc1cc2cc(CNS(=O)(=O)c3ccccc3)ccc2n1C | 1 | 6
Cc1ccsc1-c1cc(C(=O)O)cc(S(=O)(=O)NCC2CCCO2)c1 (stereo unspecified) | 0 | -2
CN(C)c1nnc(C(O)c2c(F)c(F)c(F)c(F)c2F)s1 (stereo unspecified) | 6 | 3
CC(C)COCC(O)CN(CCc1nc(-c2ccc3c(c2)OCO3)no1)CC(C)C (stereo unspecified) | 2 | 9
Cc1cccc(-c2noc(N3CCOCC3)c2CN(CC2CC2)C(=O)c2ccc(Cl)cc2)c1 | 5 | 11
CCc1[nH]c2ccc(CNC(=O)C(=O)N3CCOCC3)cc2c1C | 2 | -5
Cn1cccc1CC(=O)NNS(=O)(=O)c1ccc(Cl)cc1F | 4 | 4
CCS(=O)(=O)c1cccc(C(=O)N(CCN(C)C)c2nc3ccc(F)cc3s2)c1 | -2 | -8
CN(Cc1nc(-c2ccccn2)no1)C1CCOC1 (stereo unspecified) | -5 | -7
CCOC(=O)C1=c2/c(=C/c3cccs3)c(N)c(C(=O)OC)n2C(=O)C(c2cccs2)S1 (stereo unspecified) | 15 | 28
O=C(CCc1ccco1)N1CCCC1c1ncc(-c2ccccc2Cl)[nH]1 (stereo unspecified) | 0 | -4
CN1CCC(NC2CCSCC2)CC1 | 7 | 4
CCOc1ccc(C(=O)NCCn2nc(-c3ccc(OC)cc3)ccc2=O)cc1 | -2 | -2
O=C(Cc1ccc2c(c1)OCO2)N1CCc2c([nH]c3ccccc23)C1c1ccccn1 (stereo unspecified) | 5 | 8
CC(c1ccccc1)n1c(=O)c(C(=O)O)nn(-c2ccccc2)c1=O (stereo unspecified) | 11 | 16
CSc1ccnc2cc(C(F)(F)F)ccc12 | -9 | 4
Oc1ccc2ccccc2c1C=NN1CCOCC1 | -1 | -3
Cc1cc(NC(=O)CSc2nnc(SCC(=O)Nc3cc(C)on3)s2)no1 | 0 | 28
COc1ccc2nc(-c3cccc(NS(=O)(=O)c4ccc(Cl)s4)c3)cn2n1 | -9 | -12
N#C/C(=C\c1ccc(Cl)cc1)c1nn(CCO)c(N)c1C#N | 2 | 0
Cc1ccc(-n2ncc3c(=O)n(NC(=O)C(C)Oc4ccccc4)cnc32)cc1 (stereo unspecified) | 8 | 4

# Filtered by structure: the entries above with a COOH group (3)
molecule | NPYLR7 agonist | NPYLR7 agonist max-min
O=C(O)CCCn1cccc1 | 17 | 10
Cc1ccsc1-c1cc(C(=O)O)cc(S(=O)(=O)NCC2CCCO2)c1 (stereo unspecified) | 0 | -2
CC(c1ccccc1)n1c(=O)c(C(=O)O)nn(-c2ccccc2)c1=O (stereo unspecified) | 11 | 16

# Random excerpt: seven records from the list, in no set order.
molecule | NPYLR7 agonist | NPYLR7 agonist max-min
CN(Cc1nc(-c2ccccn2)no1)C1CCOC1 (stereo unspecified) | -5 | -7
Oc1ccc2ccccc2c1C=NN1CCOCC1 | -1 | -3
CSc1ccnc2cc(C(F)(F)F)ccc12 | -9 | 4
COc1ccc2nc(-c3cccc(NS(=O)(=O)c4ccc(Cl)s4)c3)cn2n1 | -9 | -12
CC(c1ccccc1)n1c(=O)c(C(=O)O)nn(-c2ccccc2)c1=O (stereo unspecified) | 11 | 16
Cc1cc(NC(=O)CSc2nnc(SCC(=O)Nc3cc(C)on3)s2)no1 | 0 | 28
O=C(CCc1ccco1)N1CCCC1c1ncc(-c2ccccc2Cl)[nH]1 (stereo unspecified) | 0 | -4

# (next part)
molecule | NPYLR7 agonist | NPYLR7 agonist max-min
Cc1cccc(-c2cc(N)n(-c3ccc(C(=O)NCCNc4ccc([N+](=O)[O-])cn4)cc3)n2)c1 | 2 | -3
NC(=O)CSc1ccc(NC(=O)c2cccc(F)c2)nn1 | -1 | -4
COCCn1c(C)cc(O)c(C(c2ccccc2Cl)N2CCN(C)CC2)c1=O (stereo unspecified) | 11 | 1
O=C(Nc1ccccc1N1CCCC1)N1CCC(c2ccccc2)CC1 | -6 | -8
COc1ccc(CCN(Cc2sccc2C)C(=O)CN(CC(C)C)C(=O)Nc2ccccc2C(F)(F)F)cc1OC | -5 | 2
COc1ccccc1N1CCN(CCN(C(=O)c2ccc(I)cc2)c2ccccn2)CC1 | 0 | 5
O=C(NCCC(F)(F)F)c1cnc(N2CCNC2=O)o1 | 1 | -3
COc1ccc(OC)c(-c2cc(C(=O)N3CCC(C(=O)Nc4nccs4)CC3)[nH]n2)c1 | -2 | -3
NC(=O)c1cnc2n1CCN(C(=O)c1cnn3ccccc13)C2 | 12 | 8
